RN4220 kill – growth inhibition of S. aureus RN4220, primary screen, OD600. AID 1259311, 2017. inhibition, % (no concentration beside the values). 16 h. hit rate 0.33% among 330,000;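 active = z-score of -3 or lower and OD600 up to 0.18 on both plates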;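 note: plate controls were untreated cells for no effect and reference antibiotic for full effect; stock transfer was 100 nL into about 80 µL; one replicate is shown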
ugtP null kill – growth inhibition of ugtP-null S. aureus, primary screen, RN4220 ugtP deletion, OD600 | hit rate 0.54% among 330,000 | growth inhibition, % (test concentration not listed) | 16 h; some inactives read as strong as hits;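 active = z-score under -3 and OD600 up to 0.15 on both plates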;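 note: plate controls were untreated wells for no effect and antibiotic for full effect; wells of about 80 µL received 100 nL stock; the first replicate is given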
PrP 5UTR inh – inhibition of PrP 5' UTR reporter expression | hit rate 0.35% among 340,000 | AID 488862, 2010 | inhibition, % (test concentration not listed) | cell-based PrP 5' UTR mRNA reporter, plate reader;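 active = every replicate at 50% or more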;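 note: 0 = median of the neutral control wells; tested in H4 reporter cells; numbers are from one replicate; inactives centre near -14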
BJeLR lethal – MLPCN primary cell-based screen for lethality selective to Ras in HRASV12 cells; BJeLR (HRASV12) viability, CellTiter-Glo ATP luminescence, 48 h; reference of the scale not given here; inhibition, % (test concentration not listed); hit rate 0.17% among 300,000;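 active = replicate mean above 50%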;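 note: 50 nL library stock added to about 25 µL; numbers are from one replicate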
Autofluor counter – flagged as autofluorescent in microsphere protease counterscreen; compound autofluorescence counterscreen, microsphere flow cytometry; hits give high values; fluorescence intensity (test concentration not listed); hit rate 3.1% among 360,000;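 active = at least 3 SD above the mean of all compounds, about 16000 in these data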;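 note: 100 nL of 1 mM stock went into each well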
Mtb hypoxia rep – PubChem AID 1159583 | hit rate 0.1% among 300,000 | M. tuberculosis hypoxia-regulated fluorescent reporter, fluorescence | fluorescence inhibition, % (test concentration not listed);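 active = 35 to 45% if threefold the growth effect, above 45% if 1.5-fold the growth effect; inactive = the rest, general growth blockers included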;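 note: wells of about 50 µL received 100 nL stock; 0% = vehicle wells and 100% = reference inhibitor wells; whole bacteria with a GFP reporter of the hypoxia response; strong numbers were not always called active; many hits fall short of the cut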
Mtb hypoxia rep growth – recorded beside Mtb hypoxia rep, whose call it bears; growth inhibition, %; measured here: M. tuberculosis growth (absorbance);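 0% = vehicle and 100% = reference antibiotic; read after six days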
Active calls of the source: *; nt = not tested or not shown; & = joins results of further samples. Outcome played no part in choosing rows. About 4% of those tested had a hit in this group.

SMILES	RN4220 kill	ugtP null kill	PrP 5UTR inh	BJeLR lethal	Autofluor counter	Mtb hypoxia rep	Mtb hypoxia rep growth
CCN(CC)S(=O)(=O)c1ccc(NC(=O)C2c3ccccc3Oc3ccccc32)cc1	-3.3	0.0	-7.8	-3.2	3375	6.5	5.2
CCOC(=O)C1=C(COC(=O)/C=C/c2ccc(O)c(OC)c2)NC(=O)NC1C (configuration not stated)	4.0	1.9	-7.5	nt	7905	2.5	0.5
Cc1cccc(-n2c(SCC(=O)O)nc3sc4c(c3c2=O)CCC4)c1	4.4	7.3	-26.9	1.5	3259	-12.0	-4.0
CN(C)c1ccc(C=NC(CO)C(O)c2ccc([N+](=O)[O-])cc2)cc1 (configuration not stated)	3.0	10.2	-24.5	-3.9	5487	8.6	-4.0
C/C(=N/Nc1ccc(C(=O)O)cc1)c1ccc2c(c1)Nc1ccccc1S2	-6.6	-30.7	-30.0	nt	4073	7.0	-1.3
COC(=O)/C=C/c1ccc(OC(=O)c2ccncc2)cc1	0.7	8.9	-4.1	6.0	2126	-0.5	-4.4
Cc1ccnc(N=Cc2nc(-c3ccccc3Br)oc2O)c1	2.8	5.1	-57.0	-5.4	2642	-14.6	5.1
CCN(CC(=O)Nc1ccc(NC(C)=O)cc1)C(=O)c1cc(-c2ccccc2Cl)nc2ccccc12	0.8	1.1	6.7	nt	3945	-8.0	4.4
CCOC(=O)N1CCC(NC(=O)c2cc3c(-c4ccccc4F)nn(C)c3s2)CC1	-12.0	1.4	-20.2	-7.7	5175	-0.3	0.0
O=C(O)c1cc(S(=O)(=O)Nc2cccc(S(=O)(=O)N3CCCC3)c2)ccc1Cl	4.5	3.2	-13.1	nt	4693	-4.8	-9.3
CCOCc1c(C(=O)Nc2ccc(OC)nc2)oc2ccccc12	-1.2	7.1	-15.3	-6.1	3895	5.3	0.2
COC(=O)CC1Sc2ccccc2NC1=O (configuration not stated)	5.3	1.6	-2.9	9.4	6156	5.1	11.1
COCCCNC(NC(=O)c1ccc(C)cc1)C(Cl)(Cl)Cl (configuration not stated)	8.4	7.4	-10.5	1.3	3310	-3.2	-0.9
O=C(c1ccc(Cn2cc([N+](=O)[O-])cn2)o1)N1CCCC1	5.9	6.8	-10.6	4.9	5618	3.0	-0.5
Cc1cc(NC(=O)c2sc(Nc3ccc(F)cc3)nc2N)no1	nt	nt	-18.0	-6.0	4086	nt	nt
CC1=NNC(=O)C1CCC(=O)N/N=C\c1ccccc1[N+](=O)[O-] (configuration not stated)	nt	nt	-13.9	2.9	22394*	nt	nt
CC1CCCCN1CCCNC(=O)c1nn(C)c2c1CSc1ccccc1-2 (configuration not stated)	nt	nt	-12.7	14.6	8373	nt	nt
CN(C)C(=O)CSc1nnc(-c2cc(-c3cccs3)nc3ccccc23)o1	11.7	-9.0	-3.5	9.0	2319	3.4	2.7
Nn1cnnc1NN=Cc1ccc(Cl)cc1Cl	-3.5	2.0	nt	nt	nt	3.1	7.0
CC(C)(C)c1cc(NC(=O)Nc2ccccc2OC(F)(F)F)no1	-0.8	-1.2	4.3	-8.1	3869	-12.3	1.6
CCN(Cc1cnn(C)c1)C(=O)c1ccc(OC2CCN(S(=O)(=O)N(C)C)CC2)cc1	-0.3	9.2	-0.2	4.5	4193	8.7	5.9
CC(O)CN1CC(O)=C(c2nc3ccccc3s2)C1=N (configuration not stated)	-7.3	-4.3	-5.4	nt	4408	-7.0	3.9
CC(=O)c1cc(C)ccc1OC(=O)c1cccc2nc(C)oc12	4.2	5.9	-3.4	-2.0	4959	nt	nt
COc1ccccc1NC(=O)CSCc1cc(=O)n2ccsc2n1	1.6	3.0	-0.6	-4.6	5338	-10.6	-9.2
CCS(=O)(=O)N1Cc2ccccc2CC1C(=O)Nc1nnc(SCc2c(Cl)cccc2Cl)s1 (configuration not stated)	6.3	2.4	-24.6	-2.7	6623	9.3	7.0
Cc1nc2sc(C(c3cccc(F)c3)N3CCN(C(=O)c4ccco4)CC3)c(O)n2n1 (configuration not stated)	3.6	2.0	-17.6	6.3	4379	8.1	4.2
Cn1c(=O)c2c(-c3ccccc3)n(C3CCCCC3)cc2n(C)c1=O	1.7	13.8	-11.1	-1.6	10589	1.8	12.2
CCCCOCCCn1c(-c2ccco2)nc2nc3ccccc3nc21	-5.1	-9.3	-17.9	-4.3	3165	22.0	34.7
CCCCOc1ccc(C(=O)N2CCNC(=O)C2CC(=O)OC(C)C)cc1 (configuration not stated)	-1.7	2.7	-13.1	-1.4	3313	-0.1	10.9
COc1ccc(C(=O)NCc2n[nH]c(=S)n2-c2ccccc2)cc1OC	-0.8	4.3	-10.1	-8.5	6941	9.8	4.2
Cc1ccc(/C=N/n2cnc3sc4c(c3c2=O)CCCC4)o1	nt	nt	-25.6	8.5	9718	nt	nt
CC(=O)Nn1c(COc2ccccc2C)nc2ccccc2c1=O	2.2	3.4	-9.2	-1.3	3662	9.3	0.6
Oc1c(N=NC(=S)Nc2ccccc2F)c2ccccc2n1Cc1cccc(Cl)c1	-0.2	-2.4	-32.7	0.8	4237	2.9	6.8
CC(C)(C)c1ccccc1NC(=O)NC1CCN(Cc2c(F)cccc2Cl)CC1	nt	nt	-14.1	3.6	4387	nt	nt
Nc1ncnc2c1ncn2[C@@H]1O[C@H](CNCc2cccc(C#Cc3ccccc3)c2)[C@@H](O)[C@H]1O	3.6	-9.7	-18.2	nt	3702	-5.2	2.0
Cc1nn(-c2ccccc2)c(C)c1NC(=O)COc1ccc(C#N)cc1	6.5	7.3	-24.5	6.0	2606	-1.5	-2.2
NC(=O)CSc1nnc(NC(=O)C2CC(=O)N(c3ccc(F)cc3)C2)s1 (configuration not stated)	5.8	4.6	3.2	-2.9	4374	12.0	7.9
O=C(NNC(=O)C1CCN(c2ncccn2)CC1)c1ccccc1	4.0	2.1	-23.5	4.1	4133	-5.3	-6.4
Cc1cc(C)nc(NNC(=O)NC2CCCCC2)n1	0.8	10.0	-29.2	-3.2	2227	-0.2	5.9
CC1CC(C)CN(S(=O)(=O)c2ccc(C(=O)N(C)Cc3ccccc3)cc2)C1 (configuration not stated)	3.2	6.5	-24.8	nt	5429	-0.6	10.5
O=C(CCNC(=O)c1ccc(Cl)cc1)NCCC1=CCCCC1	3.1	9.7	-40.3	7.0	4370	4.4	-1.0
O=C(OCC1OC(n2cnc3c(N(C(=O)c4ccccc4)C(=O)c4ccccc4)ncnc32)C(O)C1F)c1ccccc1 (configuration not stated)	5.2	9.7	-5.6	9.7	24792*	-0.9	-0.5
CCn1c(N=Cc2ccc(OC)cc2O)nc2ccccc21	5.7	6.2	nt	nt	nt	16.1	-1.1
Cc1cccc(C=CC(=O)c2ccc(Cl)cc2)c1	4.4	1.7	-21.6	nt	4122	nt	nt
COc1cnc(-c2cccc(C(F)(F)F)c2)nc1OC	6.9	5.0	-30.9	5.9	4688	12.1	1.0
CC(=O)c1sc(N/N=C\c2c(O)ccc3ccccc23)nc1C	nt	nt	-51.7	-1.1	3177	nt	nt
CCCCCOC(=O)c1ccc(N2C(=O)C3C4C=CC(C4)C3C2=O)cc1 (configuration not stated)	4.6	15.1	-4.0	1.4	8305	9.4	5.5
CCN(CC(=O)Nc1ccccc1C(F)(F)F)C(=O)c1ccccc1OCc1ccc(F)cc1	19.8	0.1	-8.4	nt	nt	5.0	13.8
CCCC(=O)Nc1cc(C)c(NC(=O)c2ccccn2)cn1	0.9	3.0	-19.7	12.8	2366	nt	nt
Cc1cc(NS(=O)(=O)c2ccccc2)c(C)c(Cl)c1O	12.4	-15.0	-13.7	10.8	4219	-2.7	5.1
Next results:
SMILES	RN4220 kill	ugtP null kill	PrP 5UTR inh	BJeLR lethal	Autofluor counter	Mtb hypoxia rep	Mtb hypoxia rep growth
CC(NC(=O)Cc1cccs1)C(c1cccs1)N1CCN(c2ccccc2F)CC1 (configuration not stated)	4.0	6.0	nt	-7.0	8322	13.8	-6.3
C=CCNC(=S)NNC(=O)c1cccn(Cc2cccc(Cl)c2)c1=O	2.3	6.1	-8.1	0.6	24135*	-2.8	2.0
CCNC(=O)COC(=O)/C=C/c1cccs1	3.1	3.3	-15.7	11.3	3319	4.8	-1.1
CCOC(=O)/C(=N\Nc1ccccc1[N+](=O)[O-])c1csc(N)n1	nt	nt	-26.1	-3.8	4291	nt	nt
CN(C)S(=O)(=O)c1ccc(N2CCCC2)c(C(=O)Nc2ccccc2Br)c1	-0.8	0.3	-13.4	2.8	6604	9.5	5.4
Cn1c(=O)c2c(nc(NCCc3ccccc3)n2Cc2ccccc2)n(C)c1=O	4.0	9.7	-24.6	11.9	4309	7.2	-2.4
CCOC(=O)c1[nH]c2ccc(C)cc2c1N=CN(CC)CC	1.7	5.3	-12.1	3.7	4925	nt	nt
C=CCc1ccc(OCc2ccc(C(=O)OC)o2)c(OC)c1	6.3	7.4	-86.9	-14.0	3333	-0.7	8.5
CCOC(=O)C[C@H]1c2cc(C(F)(F)F)ccc2S(=O)(=O)N1Cc1ccccc1	nt	nt	-32.6	10.8	4121	nt	nt
COc1ccc([N+](=O)[O-])cc1NC(=O)COC(=O)Cc1cc(OC)c(OC)c(OC)c1	4.0	16.9	-22.9	-3.9	2531	-6.2	5.2
O=C(O)C1=CC(c2ccc(Br)cc2)CC(OCCCCO)O1 (configuration not stated)	9.6&6.3	0.6&4.5	nt	nt	nt	-3.6&21.1	-5.2&6.3
COCCn1c(SCC(=O)N2CCCC2)nc2c([nH]c3ccccc32)c1=O	3.1	1.1	-16.6	-0.1	5881	2.9	3.4

Among those listed so far, eleven contain a Cl atom:
SMILES	RN4220 kill	ugtP null kill	PrP 5UTR inh	BJeLR lethal	Autofluor counter	Mtb hypoxia rep	Mtb hypoxia rep growth
CCN(CC(=O)Nc1ccc(NC(C)=O)cc1)C(=O)c1cc(-c2ccccc2Cl)nc2ccccc12	0.8	1.1	6.7	nt	3945	-8.0	4.4
O=C(O)c1cc(S(=O)(=O)Nc2cccc(S(=O)(=O)N3CCCC3)c2)ccc1Cl	4.5	3.2	-13.1	nt	4693	-4.8	-9.3
COCCCNC(NC(=O)c1ccc(C)cc1)C(Cl)(Cl)Cl (configuration not stated)	8.4	7.4	-10.5	1.3	3310	-3.2	-0.9
Nn1cnnc1NN=Cc1ccc(Cl)cc1Cl	-3.5	2.0	nt	nt	nt	3.1	7.0
CCS(=O)(=O)N1Cc2ccccc2CC1C(=O)Nc1nnc(SCc2c(Cl)cccc2Cl)s1 (configuration not stated)	6.3	2.4	-24.6	-2.7	6623	9.3	7.0
Oc1c(N=NC(=S)Nc2ccccc2F)c2ccccc2n1Cc1cccc(Cl)c1	-0.2	-2.4	-32.7	0.8	4237	2.9	6.8
CC(C)(C)c1ccccc1NC(=O)NC1CCN(Cc2c(F)cccc2Cl)CC1	nt	nt	-14.1	3.6	4387	nt	nt
O=C(CCNC(=O)c1ccc(Cl)cc1)NCCC1=CCCCC1	3.1	9.7	-40.3	7.0	4370	4.4	-1.0
Cc1cccc(C=CC(=O)c2ccc(Cl)cc2)c1	4.4	1.7	-21.6	nt	4122	nt	nt
Cc1cc(NS(=O)(=O)c2ccccc2)c(C)c(Cl)c1O	12.4	-15.0	-13.7	10.8	4219	-2.7	5.1
C=CCNC(=S)NNC(=O)c1cccn(Cc2cccc(Cl)c2)c1=O	2.3	6.1	-8.1	0.6	24135*	-2.8	2.0
